E coli growth: E. coli growth inhibition. Escherichia coli growth, OD600, 23 h; active compounds read low. OD600 absorbance (no concentration beside the values). actives 0.21% (n = 330,000);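 active means OD600 absorbance below the run mean of sample wells minus 3.6 SD, in any replicate, cut at about 0.56 in these data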;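 further: stock transfer was 300 nL into about 60 µL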
UCH37 DUB inh: inhibitors of human deubiquitinating enzyme UCH37. Q9Y5K5. purified proteasome/UCH37, Ub-AMC cleavage fluorescence. inhibition, % (no concentration beside the values). actives 0.33% (n = 330,000);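 active means mean of two replicates above 20%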;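 further: 0% = compound-free wells with enzyme and 100% = wells lacking proteasome; stock transfer was 100 nL into about 20 µL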
Target sequence (Q9Y5K5 whole entry, looked up): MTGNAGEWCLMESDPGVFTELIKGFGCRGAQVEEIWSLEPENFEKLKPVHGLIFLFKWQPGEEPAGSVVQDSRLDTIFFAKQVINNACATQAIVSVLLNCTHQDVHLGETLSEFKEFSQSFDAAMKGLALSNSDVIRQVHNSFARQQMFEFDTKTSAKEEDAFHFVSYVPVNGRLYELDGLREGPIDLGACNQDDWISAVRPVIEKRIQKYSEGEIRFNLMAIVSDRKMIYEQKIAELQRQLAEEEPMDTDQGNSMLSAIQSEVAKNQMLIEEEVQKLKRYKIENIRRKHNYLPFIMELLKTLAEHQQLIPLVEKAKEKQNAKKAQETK
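Test system – human UCH37 enzyme supplied as purified proteasome complex · Incubation – 30 min preincubation with enzyme, 25 min cleavage at room temperature · Detection – AMC fluorescence from Ub-AMC cleavage, excitation 355 nm, emission 460 nm · Benchmarks – no-proteasome wells (full inhibition) and compound-free wells (no inhibition)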
RanGTP-Impb inh: inhibitors of RanGTP-importin-beta interaction, primary screen, biochemical, FRET, CFP-Ran, YFP-importin-beta, homogeneous; cell-free CFP-Ran/YFP-importin-beta FRET ratio; inhibition, % (test concentration not listed); actives 1.1% (n = 300,000);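 active means most replicates above 15%; inconclusive means exactly half above 15%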;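 further: 0% = DMSO wells and 100% = Ran loaded with GDP instead of GTP; wells of about 40 µL received 100 nL stock; the first replicate is given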
MLL AF4-AF9 inh: inhibitors of human MLL-AF4/AF9 interaction. P42568. AlphaScreen, biotin-AF4 peptide binding to FLAG-AF9. inhibition, % at 10 µM. actives 0.47% (n = 350,000);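 active means every replicate reaching a set inhibition limit, whatever the replicate mean, cut at about 25% in these data; inconclusive means mean inhibition reaches that limit but some replicates miss it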;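 further: 0% = plate neutral control median and 100% = total signal loss; the record names both 10 and 1 µM as test concentration; the first replicate is given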
Target sequence (P42568 whole entry, looked up): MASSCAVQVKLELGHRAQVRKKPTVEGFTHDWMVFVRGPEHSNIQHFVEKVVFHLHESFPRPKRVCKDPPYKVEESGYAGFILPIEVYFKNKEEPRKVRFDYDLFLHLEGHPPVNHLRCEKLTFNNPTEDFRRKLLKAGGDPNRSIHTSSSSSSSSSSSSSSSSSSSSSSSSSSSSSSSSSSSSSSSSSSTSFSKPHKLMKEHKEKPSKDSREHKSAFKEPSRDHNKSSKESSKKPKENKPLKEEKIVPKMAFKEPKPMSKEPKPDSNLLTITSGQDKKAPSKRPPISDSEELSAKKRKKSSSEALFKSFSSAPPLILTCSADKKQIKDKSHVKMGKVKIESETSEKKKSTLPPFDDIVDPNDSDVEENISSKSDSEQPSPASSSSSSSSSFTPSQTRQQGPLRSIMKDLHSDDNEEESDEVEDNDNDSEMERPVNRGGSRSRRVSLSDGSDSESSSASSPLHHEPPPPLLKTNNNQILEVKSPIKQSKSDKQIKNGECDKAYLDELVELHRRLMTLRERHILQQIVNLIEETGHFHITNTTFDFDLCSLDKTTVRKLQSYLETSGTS
HNF4A DNA FP: change in binding of human HNF4 alpha to DNA; P41235; HNF4a-FITC DNA binding, fluorescence polarization, 1 h; activity change, % at 10 µM; actives 0.3% (n = 360,000); AID 1224865; in the data active means activity change above about 30%, passing the limit was not always enough;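 further: controls were the assay level and a saturating level of protein; the project sought stronger binding though the title names inhibitors; some compounds called inactive have numbers as strong as hits; positive values seem to mean higher polarization but the record does not say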
FGF22 binding: shifts melting point of recombinant human FGF22; AID 651658; Q9HCT0; actives 1.5% (n = 340,000); recombinant FGF22 thermal shift, SYPRO orange fluorescence; percent of sucrose octasulfate shift, DMSO zero; calls only at 9.99 µM;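 active means melting point raised past a set limit in the mean and every replicate; inconclusive means no clear call; three in four hits are not shown here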
Target sequence (Q9HCT0 whole entry, looked up): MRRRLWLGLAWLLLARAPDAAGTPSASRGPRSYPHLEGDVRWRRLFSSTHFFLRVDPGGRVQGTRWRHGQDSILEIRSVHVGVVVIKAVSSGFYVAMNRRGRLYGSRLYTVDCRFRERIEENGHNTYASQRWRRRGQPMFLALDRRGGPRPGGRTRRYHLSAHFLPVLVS
Vif A3G: inhibitors of Vif binding to APOBEC3G peptide, primary screen, biochemical, TR-FRET, GST-Vif 1-94, biotin-A3G peptide, dose response retest (AID 1117319). actives 0.57% (n = 260,000). TR-FRET GST-Vif / biotin-A3G peptide binding; higher % means a stronger effect; test concentration not given here; strong numbers were not always called active. one-dose inhibition, %; IC50 in µM for titrated hits;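 active means above the screen mean plus three standard deviations and confirmed in dose response; inconclusive means results disagree or hit not tested in dose response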;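 further: Vif residues 1-94 fused to GST binding biotinylated APOBEC3G peptide 110-148; 0% = full assay without inhibitor and 100% = GST in place of GST-Vif; retest series ran down from 100 µM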
The depositor's hits bear a star; i = inactive; u = inconclusive; x = not tested or not shown.

SMILES	E coli growth	UCH37 DUB inh	RanGTP-Impb inh	MLL AF4-AF9 inh	HNF4A DNA FP	FGF22 binding	Vif A3G
NS(=O)(=O)Oc1ccccc1	0.68	2.6	5.6	0.6	-0.9	i	x
O=C(O)c1cc(/C=C/c2ccc(N3CCOCC3)c([N+](=O)[O-])c2)nc2ccccc12	0.68	14	4.5	-8.4	0.2	i	-3%
N#CC1c2ccccc2C=CN1C(=O)c1ccccc1 (stereo unspecified)	0.69	0.0	6.2	10	1.5	i	x
COc1ccccc1Oc1ccc2c(c1)C(=O)N(c1ccc(Br)c3cccnc13)C2=O	0.73	0.7	7.9	x	4.4	x	19%
CCCCN1CCc2c1nc1ccc(Br)cc1c2N	0.59	9.7	-2.3	14	0.2	i	-4%
Cc1ccc(OCc2nnc(SCC(=O)c3ccccc3)n2Cc2ccco2)cc1	0.7	2.3	-5.8	x	3.4	x	9%
Cc1nc2nc(SCC(=O)NCCCN3CCCCC3)nn2c(C)c1Cc1ccccc1	0.67	2.3	-1.2	-0.7	2.3	i	x
Cc1ccc(-c2csc(N3CCN(CCCn4c(-c5ccncc5)nc5ccccc54)CC3)n2)cc1	0.71	-1.3	-2.4	7.2	2.9	i	x
CN(C)S(=O)(=O)c1ccc(C(=O)Nc2cccnc2)cc1	0.67	0.9	-5.8	x	-0.1	x	u
COc1ccc2nc(SCC(=O)NCc3ccccc3)[nH]c2c1	0.65	1.7	-2.8	-2.3	-1.2	i	x
O=C1CCCc2ccc3ccccc3c21	0.65	5.3	x	0.9	-2.4	i	-6%
Cc1ccc(N2CC(C(=O)Nc3nnc(C(C)C)s3)CC2=O)cc1 (stereo unspecified)	0.72	-0.1	-3.8	x	0.4	x	-9%
CC(C)C[C@H]1CNC(=S)N1C[C@H]1CCCN1C[C@H](Cc1ccccc1)N1C[C@H](Cc2ccc(O)cc2)N(CC2CCCCCC2)C1=S	x	x	x	3.4	3.3	i	x
C=C1c2ccccc2O[C@H](C(=O)OCC)[C@H]1OC	0.71	5.9	x	-10	-1.4	i	4%
CCOC(=O)Cn1c(O)c(N=NC(=O)OC)c2ccccc21	0.69	3.1	1.2	-5.3	-0.8	i	5%
Cc1ccc(N2C(=O)CC(Sc3ncn[nH]3)C2=O)cc1C (stereo unspecified)	0.73	-2.2	-4.4	x	-2.6	x	1%
COc1ccc(NC(=O)CSCC(=O)N(C)CC(=O)Nc2c(C)cccc2C)cc1	0.72	3.8	x	1.3	-2.0	i	1%
O=C(NCc1ccccn1)C1CC(=O)N(C2CCCC2)C1 (stereo unspecified)	0.75	3.0	-0.7	5.2	-4.1	i	x
CCc1ccc2nc(N(CCCN(C)C)C(=O)c3ccc(S(=O)(=O)N(C)C4CCCCC4)cc3)sc2c1	0.71	0.7	-5.1	2.3	0.4	i	x
O=c1cc(-c2ccc3c(c2)OCCO3)oc2ccc(Cl)cc12	0.73	-42	0.9	-2.6	-1.1	x	x
NS(=O)(=O)c1ccc(CCNC(=O)c2cccc3ccccc23)cc1	0.66	4.2	1.5	-2.1	-2.4	i	-5%
O=C(NC(NC(=S)Nc1cccc(C(=O)O)c1)C(Cl)(Cl)Cl)OCc1ccccc1 (stereo unspecified)	0.69	2.6	-3.6	-4.4	1.6	i	16%
CCCOc1ccc(Oc2cc(C)nc(SC)n2)nn1	0.7	2.9	5.3	x	3.0	x	6%
CCCNC(=O)Cc1ccsc1	0.75	2.0	u	x	3.1	x	21%
Cc1nc(N)c(C#N)c(-c2cccnc2)c1C	0.72	-5.7	3.2	x	2.7	x	-7%

Rewritten with two lines to a compound: 2 of the compounds above
Each structure is followed by: E coli growth	UCH37 DUB inh	RanGTP-Impb inh	MLL AF4-AF9 inh	HNF4A DNA FP	FGF22 binding	Vif A3G
Cc1nc2nc(SCC(=O)NCCCN3CCCCC3)nn2c(C)c1Cc1ccccc1
    0.67	2.3	-1.2	-0.7	2.3	i	x
Cc1ccc(-c2csc(N3CCN(CCCn4c(-c5ccncc5)nc5ccccc54)CC3)n2)cc1
    0.71	-1.3	-2.4	7.2	2.9	i	x

Other structures
SMILES	E coli growth	UCH37 DUB inh	RanGTP-Impb inh	MLL AF4-AF9 inh	HNF4A DNA FP	FGF22 binding	Vif A3G
CCCCOC(=O)CSc1nnc(-c2cc(OC)c(OC)c(OC)c2)o1	0.64	0.4	5.3	x	-3.3	x	1%
C[C@H]1CCC2[C@](C)(CO)[C@@H](O)CC[C@]2(C)[C@@]12CCC(CO)(CCO)O2 (stereo partly specified)	0.67	0.2	3.9	-0.5	2.1	i	-3%
O=C(NC1CCCC1)c1cccc(S(=O)(=O)Nc2ccccc2F)c1	0.65	0.9	x	-2.5	-4.1	i	-1%
COc1ccccc1NC(=O)N1CCN(c2ccc(F)cc2)CC1	0.71	0.7	-3.4	x	-0.2	x	3%
CCOc1ccc2[nH]c(=O)c(CN(CC3COCCO3)C(=O)c3ccc(C)cc3)cc2c1 (stereo unspecified)	0.64	-87	-1.8	-0.4	-3.6	i	1%
O=S(=O)(Nc1ccc(Br)cn1)c1cccs1	0.62	-1.6	1.1	-1.7	-0.1	i	-5%
CN1C(=S)N(c2ccccc2)C(=O)/C1=C/c1cccs1	0.69	1.4	-6.7	x	1.7	x	x
C=CCn1c(SCC(=O)c2ccc(O)c(O)c2)nnc1-c1cccc(Cl)c1	0.7	3.9	x	-16	-10	i	x
COc1ccc(CCNC(=O)CSc2nc3c(c(=O)n(C)c(=O)n3C)n2C)cc1OC	0.7	1.7	-3.1	x	-0.4	x	-10%
N#Cc1ccccc1NC(=O)C(=O)NCCCN1CCCC1=O	0.68	-0.8	4.3	2.1	-0.4	i	-2%
CC(C)(C)c1ccc(/C=C/C(=O)Nc2cccnc2)cc1	0.66	3.5	u	-2.8	1.8	i	x
O=C(Cn1c(C(=O)NCc2ccco2)cc2sccc21)c1ccccc1	0.64	4.1	1.5	1.8	3.5	i	2%
CCO[C@H]1OC(C(=O)N2CCN(C)CC2)=C[C@@H](C2CC2)[C@@H]1CCCO	x	2.2	-0.2	0.1	-2.4	i	-4%
Cc1ccc(C(=O)NC2CCCC2)s1	0.73	0.5	-1.2	-14	-0.9	i	-3%
CNc1ccccc(C(=O)/C=C/c2ccccc2OC)c1=O	0.63	5.6	-1.6	x	-43	x	3.9µM*
O=C(Nc1cccc(S(=O)(=O)N2CCCCCC2)c1)C1CCC1	0.71	1.3	-4.6	-1.1	3.4	i	5%
COc1cc(/C=C\C(=O)NCc2ccc3[nH]c(C)cc3c2)cc(OC)c1OC	0.8	-0.6	5.2	4.5	3.6	i	-12%
CCCn1c(CN2CCCCC2CC)nc2c1c(=O)n(C)c(=O)n2C (stereo unspecified)	0.74	2.4	2.5	8.1	2.4	i	-3%
CCC(CC)c1nnc(NC(=O)CN2C(=O)c3ccccc3C2=O)s1	0.68	-0.1	2.2	-1.1	-1.9	i	12%
Cc1cc(C)cc(N(CC(=O)NCc2ccc(F)cc2)C(=O)c2snc(C(N)=O)c2N)c1	0.69	-73	0.0	0.8	-3.8	i	x
COc1cc(C)nc(N2CCCC(C(=O)Nc3ccccc3Br)C2)n1 (stereo unspecified)	0.68	2.8	-4.1	-1.9	1.2	i	u
Cc1cc(Oc2ccccc2F)nc(NCc2ccccc2)n1	0.73	4.5	4.4	x	0.1	x	9%
CC(=O)NS(=O)(=O)c1ccc(NC(=O)c2ccccn2)cc1	0.7	1.6	-0.7	-4.3	1.1	i	11%
CC(C)(C)NC(=O)CN(C(=O)c1snc(C(=O)NC2CCCCC2)c1N)c1ccc(F)cc1	0.6	2.6	5.1	1.3	-4.8	i	x
CC(C)NC(=S)N(C)C1(c2ccccc2Cl)CCCCC1=O (stereo unspecified)	0.7	0.5	-2.4	x	0.4	x	-1%
More compounds:
SMILES	E coli growth	UCH37 DUB inh	RanGTP-Impb inh	MLL AF4-AF9 inh	HNF4A DNA FP	FGF22 binding	Vif A3G
CCNC(=O)CN(c1ccc(CC)cc1)S(C)(=O)=O	0.68	4.2	1.6	x	-1.1	x	-2%
Cc1cccc(NC(=O)Nc2nnc(N3CCCCC3C)s2)c1C (stereo unspecified)	0.8	4.6	u	3.4	1.6	i	-4%
Cc1cccc(N2CCN(C(=O)c3ccc(NC(=O)C4CCCO4)cc3)CC2C)c1 (stereo unspecified)	0.71	0.5	0.8	x	-26	x	-7%
Clc1cccc(OCCn2ccnc2)c1	0.65	-1.2	0.5	1.4	3.1	i	x
O=[N+]([O-])c1cccc(-c2ncc3ccccn23)c1	x	x	2.0	3.8	0.0	x	x
O=C(O)Cn1nc(-c2ccccc2)c2ccccc2c1=O	0.71	2.2	3.7	x	-1.7	x	26%
O=C(COC(=O)c1cc([N+](=O)[O-])ccc1N1CCCC1)Nc1ccccc1OC(F)F	0.71	3.7	x	6.1	0.8	i	-5%
CCOc1nc(OCC)nc(-n2cc(-c3ccccc3)nn2)n1	0.72	2.0	8.4	x	-1.2	x	-5%
CCN(CC)C(=O)c1cccc(-c2ccc(OC)cc2)c1	0.68	4.8	6.8	x	0.3	x	5%
O=C(c1ccc(=O)n(Cc2ccc(Cl)c(Cl)c2)c1)N1CCOCC1	0.72	3.3	u	x	3.6	x	1%
CCOC(=O)CNC(=O)N1CCc2ccc(NC(=O)c3ccccc3Cl)cc2C1	0.66	4.1	2.3	-2.3	1.8	i	x
CCCc1nnc(NC(=O)CCCN2C(=O)c3ccccc3C2=O)s1	0.73	3.6	0.5	x	-1.5	x	7%
Cc1ccccc1-n1c(C)nnc1SCC(=O)N1CCc2ccccc2C1	0.67	0.2	u	x	-2.2	x	u
Cc1ccc2nc(-c3ccccc3)c(CN3CCSCC3)n2c1	0.69	-2.4	u	3.4	4.6	i	-1%
[O-][n+]1ccccc1SCc1ccccc1	0.64	1.8	-6.5	1.4	0.9	i	x
COc1ccc(CCNC(=O)C2CCN(S(=O)(=O)c3cccc4nsnc34)CC2)cc1OC	0.77	-0.7	4.8	x	-0.1	x	4%
CCOC(=O)CCCNC(=O)CCCNC(=O)C(c1ccccc1)c1ccccc1	0.72	1.6	2.5	-2.6	-1.6	i	-7%
COc1ccc([C@H]2CC(=O)C=C(c3ccc(-c4ccccc4)c(F)c3)C2)cc1OC	x	41*	x	0.3	-1.1	i	x
CCOC(=O)c1csc(NC(=O)C(C)(C)C)n1	0.77	5.6	0.4	2.7	-0.8	i	-3%
CN(CCC#N)C(=O)c1cc2c(s1)-c1ccccc1SC2	0.67	-253	-0.3	-1.9	-2.8	i	-5%
CC(=O)Nc1cccc(NC(=O)CSc2nnnn2C)c1	0.65	-1.3	-5.7	3.0	x	i	2%
CCn1cc(C(=O)N(C)c2ccc(OC)cc2OC)c2cc(OC)c(OC)cc2c1=O	0.64	4.5	2.8	-7.4	-1.0	i	-3%
O=C(NC(=S)Nc1ccccc1)c1cc([N+](=O)[O-])ccc1N1CCOCC1	0.73	7.4	-1.8	-1.2	0.7	i	-8%
O=C(Nc1ccccc1C(=O)O)c1cccc(NS(=O)(=O)c2ccc(Br)cc2)c1	0.7	0.4	2.6	-6.5	-2.0	x	x
O=C(Nc1cccc(Cl)c1)Nc1ccc(Br)cc1F	0.65	2.9	-0.1	-1.8	0.9	i	x
Cc1occc1C(=O)Nc1c(F)c(F)c(F)c(F)c1F	0.73	-0.7	9.1	x	1.5	x	-1%
Cc1cc2ccccc2n1CCNC(=O)Cc1ccccc1	0.77	2.8	1.7	1.2	-5.2	i	21%
O=C1NC[C@@H](Cc2cccc3ccccc23)N(CC2(c3ccccc3)CC2)C1=O	x	-0.2	-4.7	6.3	0.8	i	1%

Two entries drawn at random from those above, as already listed:
SMILES	E coli growth	UCH37 DUB inh	RanGTP-Impb inh	MLL AF4-AF9 inh	HNF4A DNA FP	FGF22 binding	Vif A3G
O=[N+]([O-])c1cccc(-c2ncc3ccccn23)c1	x	x	2.0	3.8	0.0	x	x
Cc1ccc(OCc2nnc(SCC(=O)c3ccccc3)n2Cc2ccco2)cc1	0.7	2.3	-5.8	x	3.4	x	9%

This is a subset; rates above refer to the full screens.
